KCNQ2 enhance – KCNQ2 (rat) channel potentiation; O88943; CHO-K1 KCNQ2, FluxOR thallium flux fluorescence; stronger effect = higher value; B-score at 10 µM; hit rate 0.54% among 310,000;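 active means fluorescence ratio B-score at least 3 SD of library B-scores, with initial fluorescence B-score within 3 SD, cut at about 5.3 in these data; same plate scores as AID 2156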;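 further: B-score of peak minus minimum over baseline fluorescence ratio after K+ and Tl+ stimulus; positive B-score means potentiation of KCNQ2 with more thallium influx and brighter signal; only the inactives scoring about 0 or higher are listed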
Target sequence (O88943 whole entry, looked up): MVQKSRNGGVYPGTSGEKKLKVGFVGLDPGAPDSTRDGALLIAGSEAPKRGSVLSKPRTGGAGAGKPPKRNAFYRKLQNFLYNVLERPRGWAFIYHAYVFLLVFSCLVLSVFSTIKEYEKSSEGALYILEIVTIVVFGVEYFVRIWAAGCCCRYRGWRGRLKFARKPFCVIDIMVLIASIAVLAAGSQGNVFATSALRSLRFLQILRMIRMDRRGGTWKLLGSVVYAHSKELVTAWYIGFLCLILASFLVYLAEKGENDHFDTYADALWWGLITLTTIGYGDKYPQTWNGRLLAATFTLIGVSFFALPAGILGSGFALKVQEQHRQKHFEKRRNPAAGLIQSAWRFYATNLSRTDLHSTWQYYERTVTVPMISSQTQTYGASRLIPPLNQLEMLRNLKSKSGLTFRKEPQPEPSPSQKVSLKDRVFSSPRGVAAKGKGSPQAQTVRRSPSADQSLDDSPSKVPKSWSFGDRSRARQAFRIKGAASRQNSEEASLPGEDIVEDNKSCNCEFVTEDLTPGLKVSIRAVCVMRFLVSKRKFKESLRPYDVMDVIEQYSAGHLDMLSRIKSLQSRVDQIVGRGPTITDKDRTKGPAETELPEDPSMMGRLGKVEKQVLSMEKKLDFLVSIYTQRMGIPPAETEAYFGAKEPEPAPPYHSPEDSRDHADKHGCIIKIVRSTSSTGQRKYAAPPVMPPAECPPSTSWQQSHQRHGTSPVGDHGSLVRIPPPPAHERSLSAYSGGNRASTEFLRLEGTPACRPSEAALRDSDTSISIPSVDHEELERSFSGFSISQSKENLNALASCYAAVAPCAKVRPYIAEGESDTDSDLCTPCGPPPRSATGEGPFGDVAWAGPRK
KCNQ2 enhance baseline – also measured in KCNQ2 enhance; calls as there; B-score; compound at 10 µM; measured here: initial fluorescence intensity artifact check;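 brightness before thallium and not channel activity; 0 = typical well and far values either way flag optical interference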
An asterisk follows results filed as active. A portion of the library; count on the stated rates, not on these rows.

structure	KCNQ2 enhance	KCNQ2 enhance baseline
CC(=O)N1CCOc2ccc(S(=O)(=O)Nc3ccc(C)cn3)cc21	0.39	-0.55
Cc1c(N2C(=O)CSC2c2ccco2)c(=O)n(-c2ccccc2)n1C (configuration not stated)	0.42	0.55
CC1CN(CCCCN2C(=O)c3ccccc3C2=O)CC(C)O1 (configuration not stated)	0.2	-0.18
O=c1[nH]nc(Cc2ccccc2)c2ccccc12	0.2	0.03
CCCCN(C)C(=O)c1nc2ccccn2c1CN1CCN(C(=O)c2cccs2)CC1	0.73	-0.02
CCCCn1c(/N=C/c2c[nH]c3ccccc23)nc2ccccc21	0.29	1.22
COc1ccccc1Oc1ccccc1C(=O)O	0.77	0.05
O=C(COc1ccccc1)c1cn(CC(=O)N2CCCC2)c2ccccc12	0.5	2.17

Next section:
structure	KCNQ2 enhance	KCNQ2 enhance baseline
CC[C@@H]1[C@H]2CCCC(=O)N3CC[C@@H](C[C@H]1O)[C@@H]23	1.1	-1.35
COc1ccc(CCn2c(O)c(C3=c4ccccc4=NC3=O)sc2=S)cc1OC	1.13	-1.24
COC(=O)Cn1c(=NC(=O)C(C)C)sc2c(C)cc(C)cc21	0.29	1.05
CCOCCCN(C)C1CCN(C(=O)c2oc3ccccc3c2NC(=O)Cc2ccc([N+](=O)[O-])cc2)CC1	0.36	2.7
Cc1ccccc1NC(=O)NCC1CCN(Cc2cccc(Cl)c2)CC1	0.06	0.51
CSCC[C@H](NC(=O)[C@H](Cc1ccccc1)n1c(=O)[nH]c2ccccc2c1=O)C(=O)N1CCC[C@H]1C(=O)O	1.65	0.9
COc1ccc(CC(=O)NCC(=O)N/N=C/c2c[nH]c3ccccc23)cc1	0.53	0.18
COc1ccc(OC)c(NS(=O)(=O)c2ccc(-c3coc(C)n3)cc2)c1	0.14	-1.28

Gathered by group, the entries above with a COOH group
structure	KCNQ2 enhance	KCNQ2 enhance baseline
COc1ccccc1Oc1ccccc1C(=O)O	0.77	0.05
CSCC[C@H](NC(=O)[C@H](Cc1ccccc1)n1c(=O)[nH]c2ccccc2c1=O)C(=O)N1CCC[C@H]1C(=O)O	1.65	0.9

Next section:
structure	KCNQ2 enhance	KCNQ2 enhance baseline
CCn1nc(C)cc1C(=O)N1CCCC(C(=O)c2ccccc2SC)C1 (configuration not stated)	2	-0.84
O=C(COC(=O)c1cccs1)c1ccccc1	0.55	0
Cc1cc(C)n(/N=C/c2c[nH]c3ccccc23)c(=O)c1C#N	0.64	1.29
COc1ccc(NC(=S)N2CCN(C/C=C/c3ccccc3)CC2)cc1	0.89	2.37
Cc1ccc2c(c1)C1CN(C)CCC1N2CC(=O)N(C)c1ccccc1 (configuration not stated)	5.57*	-1.67*
COc1ccc2[nH]c(C)c(C(=O)CN3CCN(C/C=C/c4ccccc4)CC3)c2c1	0.26	0.47
O=C(NCc1ccccn1)Nc1ccccc1C(F)(F)F	0.54	-0.13
C=CCn1c(Cc2cccs2)nnc1SCC(=O)Nc1ccc(OC)c(OC)c1	0.27	0

Next part:
structure	KCNQ2 enhance	KCNQ2 enhance baseline
Cc1ccc(C(=O)CCC(=O)Nc2cccc(C(F)(F)F)c2)cc1C	0.78	-0.33
CC(C)Nc1nc(-c2ccccc2)nnc1-c1ccccc1	0.17	1.53
COC(=O)/C=C1\SC(=NC(=O)c2ccc(C)cc2)NC1=O	0.18	-1.09
CCOC(=O)c1sc(=NC(=O)c2ccccc2Br)n(C)c1C	0.95	0.01
CCc1nnc(NC(=O)CSc2nc3ccccc3s2)s1	0.18	0.77
CCn1c(Cc2ccccc2)nnc1SCC(=O)NC1CCCC1	0.36	0.54
CC1(C)OC(=O)C(=NNc2ccc(Cl)cc2)C(=O)O1	0.5	-0.14
COc1ccc(NS(=O)(=O)c2cccc(C(=O)OCC(=O)Nc3cc(C)on3)c2)cc1	1.29	-1.31

Reprinted from the part before: 2 entries, then new ones.
structure	KCNQ2 enhance	KCNQ2 enhance baseline
CC1(C)OC(=O)C(=NNc2ccc(Cl)cc2)C(=O)O1	0.5	-0.14
COc1ccc(NS(=O)(=O)c2cccc(C(=O)OCC(=O)Nc3cc(C)on3)c2)cc1	1.29	-1.31
Cc1cccc([C@@H]2[C@@H]3C(=O)N(Cc4ccccc4)C(=O)[C@@H]3[C@]3(CC(C)C)C(=O)N(c4cccc(Cl)c4)C(=O)N23)c1	0.47	-0.89
COc1ccc(N2CCN(CC(O)COc3c(OC)cccc3OC)CC2)cc1 (configuration not stated)	0.14	-0.82
CN(C)CCC(=O)N1c2ccccc2Sc2ccc(C(F)(F)F)cc21	1	-0.66
O=C(c1cccc(Cl)c1)N1CCN(Cc2ccccc2F)CC1	0.39	0.07
CC(C)CCNC(=O)[C@@H](NC(=O)c1c(F)cccc1F)C(C)C	0.82	-1.45
CCN(C(=O)CSc1nc2cc(Cl)ccc2c(=O)n1Cc1ccco1)C1CCS(=O)(=O)C1 (configuration not stated)	0.99	0.28
O=C(CCC(=O)OCC(=O)c1ccc(C(F)(F)F)cc1)OCC(=O)c1ccc(C(F)(F)F)cc1	0.47	0.57
O=C1CC(c2ccccc2)SC(N(c2ccccc2)c2ccccc2)=N1 (configuration not stated)	1.28	0

New compounds follow.
structure	KCNQ2 enhance	KCNQ2 enhance baseline
COc1cccc(-c2nnc(SCC(=O)OC(C)C)n2N)c1	0.87	-0.63
Cc1ccc(SCc2ccc(C(=O)Nc3nccs3)o2)cc1	1.42	-0.55
CC(CCc1ccccc1)NC(=O)CCC(=O)N1CCC(C(=O)O)CC1 (configuration not stated)	0.17	-2.6
CCn1c(CNC(=O)c2ccccc2Br)nnc1SCC(=O)Nc1nncs1	0.17	0.49
CCCCCCn1c(N2CCCC2)nc2c1c(=O)n(C)c(=O)n2C	0.46	-0.73
O=S1(=O)N=C(Nc2ccc(S(=O)(=O)N3CCCCC3)cc2)c2ccccc21	1.2	1.48
CCN1CCN(C(=O)c2sc3nc(C)nc(N4CCC(C)CC4)c3c2C)CC1	0.79	-0.53
CCCN(C(=O)c1ccco1)c1nnc(-c2ccncc2)s1	0.62	-0.79

Continuation.
structure	KCNQ2 enhance	KCNQ2 enhance baseline
COc1ccccc1NC(=O)C1CCOC1=O (configuration not stated)	0.09	2.6
Cc1ccc2nc(-c3ccsc3)c(NC3CCCC3)n2c1	1.07	-0.22
Cn1c(SCC(=O)Nc2ccccc2)nc(O)cc1=O	0.26	0.31
Cc1onc(NC(=O)c2ccc([N+](=O)[O-])o2)c1Br	0.89	-0.23
NC(N)=NC(N)=NCCc1ccccc1	1.41	0.94
COc1cccc(C(C(=O)NC(C)(C)C)N(C(=O)CCC(=O)Nc2cc(C)on2)C2CC2)c1OC (configuration not stated)	0.16	-0.08
CCc1nnc(NC(=O)[C@@H](NC(=O)c2cc(OC)cc(OC)c2)C(C)C)s1	0.06	0.46
CCOC(=O)c1c(C)[nH]c2c1cc(O)c1ccccc12	0.33	-0.15

Next section.
structure	KCNQ2 enhance	KCNQ2 enhance baseline
CCOc1cc(/C=N/NC(=O)c2ccc(CN3CCOCC3)cc2)ccc1OCc1ccccc1	1.6	-0.9
CC1(C)Cc2c(sc(NC(=O)c3ccc4c(c3)OCCO4)c2C(N)=O)C(C)(C)N1	1.97	-1.05
CCOC(=O)c1c(NC(=O)COC(=O)c2ccc(O)cc2)sc(C(=O)NC)c1C	0.15	0.17
O=C(COC(=O)CCc1nc2ccccc2c(=O)[nH]1)NC1CCS(=O)(=O)C1 (configuration not stated)	0.13	-0.51
CCC(=O)N1CCN(c2ccc(NC(=O)c3ccc4ccccc4c3)cc2)CC1	1.61	-2.12
CN1C(=O)C2(OCC(C)([N+](=O)[O-])CO2)c2ccccc21 (configuration not stated)	1.75	-0.25
O=C(COC(=O)c1cc(-c2ccncc2)nc2ccccc12)Nc1ccc2c(c1)OCO2	0.8	0.75
Nc1ccc2nc(-c3ccc(-c4nc5ccc(N)cc5[nH]4)cc3)[nH]c2c1	0.26	0.52

(continued)
structure	KCNQ2 enhance	KCNQ2 enhance baseline
Cc1cc(NC(=O)CSc2ccc(-c3ccccc3)nn2)no1	0.87	-0.25
COc1cc2ccccc2cc1C(=O)NCCCN1CCOCC1	0.15	0.75
COc1ccc(NC(=O)CCN2C(=O)c3ccccc3C2=O)c(OC)c1	0.74	0.04
O=C(c1ccc(CS(=O)(=O)c2ccc(Br)cc2)o1)N1CCN(C2CCCCC2)CC1	1.74	-0.12
COc1ccc(-n2c(NCCN(C)C)nc3sc4c(c3c2=O)CCCCC4)cc1	1	-1.32
O=C(CSCc1cccc(Br)c1)N/N=C/c1ccc2c(c1)OCO2	1.64	-1.13
COC(OC)c1ccnc(-c2ccc(OC(=O)c3ccccc3)cc2)n1	0.02	-1.11
O=C(O)C1Cc2ccccc2CN1S(=O)(=O)c1ccccc1 (configuration not stated)	1.65	-0.53

Compound profiles, as listed above:
COc1cc2ccccc2cc1C(=O)NCCCN1CCOCC1 is entered as KCNQ2 enhance = 0.15; KCNQ2 enhance baseline = 0.75
COc1ccc(NC(=O)CCN2C(=O)c3ccccc3C2=O)c(OC)c1 is entered as KCNQ2 enhance = 0.74; KCNQ2 enhance baseline = 0.04
COC(OC)c1ccnc(-c2ccc(OC(=O)c3ccccc3)cc2)n1 is entered as KCNQ2 enhance = 0.02; KCNQ2 enhance baseline = -1.11

Continuation:
structure	KCNQ2 enhance	KCNQ2 enhance baseline
Cc1cc(N/C(=N/S(=O)(=O)c2ccc(F)cc2)c2ccccc2)n(-c2ccccc2)n1	0.22	1.16
O=C(O)c1cc(-c2ccccc2Cl)n[nH]1	0.32	0.13
CNC(=S)NN(C)c1nc(C)cc(C)n1	0.21	0.77
Nc1nc(NC(=O)c2ccc(Cl)cc2)nn1-c1ccccc1	1.15	0.59
COc1ccccc1CN1[C@@H](CC(=O)O)c2cc(F)ccc2S1(=O)=O	0.11	-3.02
O=C(CSc1nc2ccccc2c(=O)[nH]1)N1CCN(S(=O)(=O)c2ccccc2)CC1	1.27	1.57
C=C(C)c1cccc(C(C)(C)NC(=O)N2CCOCC2)c1	0.27	-0.79
Cc1ccc(NC(=O)COC(=O)C2CC(=O)N(Cc3ccccc3)C2)cc1F (configuration not stated)	0.72	1.39

Following part
structure	KCNQ2 enhance	KCNQ2 enhance baseline
O=C(NCCN1CCCC1)c1ccc2c(c1)N(Cc1ccc(F)cc1)C(=O)c1ccccc1S2=O (configuration not stated)	0.35	-0.14
COc1ccc2nc(NC(=O)C3CCCN(S(=O)(=O)c4cccc5nonc45)C3)sc2c1 (configuration not stated)	0.05	1.05
O=C(c1ccc2c(c1)OCCO2)C1CCN(S(=O)(=O)c2ccc(F)cc2)CC1	0.03	-1.62
Cc1ccc(C(=O)NC(=S)NCc2cccnc2)cc1C	1.82	0.11
Cc1ccc(OC(F)F)c(NC(=O)Nc2ccc3c(c2)OCO3)c1	1.05	1.64
Nc1nc(NCc2ccco2)nc(Nc2ccccc2)c1[N+](=O)[O-]	0.59	-0.37
O=c1cc(N2CCN(c3ccccc3)CC2)[nH]c(=O)n1C1CCCCC1	1.85	0
CCC(CC)N=C1NS(=O)(=O)c2cc([N+](=O)[O-])ccc21	1.42	-0.3

New compounds follow.
structure	KCNQ2 enhance	KCNQ2 enhance baseline
COc1ccc(NC(C)=O)cc1C	1.2	-2.94
Cc1cc(=O)[nH]c2c(C)cc(S(=O)(=O)N3CCOCC3)cc12	0.46	0.48
CC1CCCC(NC(=O)c2cc(S(=O)(=O)N3CCOCC3)ccc2F)C1C (configuration not stated)	1.14	-2.11
Cc1nn(-c2ccccc2)c(C)c1S(=O)(=O)O	0.56	0.81
CCOc1ccc(S(=O)(=O)N2CCC(C(=O)Nc3cccc(NC(C)=O)c3)CC2)cc1	0.56	0.14
C=CCn1c(O)c(N=NC(=S)Nc2ccc(OC)c(Cl)c2)c2ccccc21	4.25	0.92
COc1ccc(C)cc1S(=O)(=O)Nc1cccnc1	1.1	0.04
O=C(O)c1ccc(-n2c(/C=C/c3cccc([N+](=O)[O-])c3)nc3ccccc3c2=O)cc1	3.08	-0.01

Further structures.
structure	KCNQ2 enhance	KCNQ2 enhance baseline
O=C(Cc1ccccn1)c1ccc(Cl)cc1	1.23	-1.48
Cc1ccnc(NS(=O)(=O)c2ccc(NC(=O)c3ccc(S(=O)(=O)N4CC(C)OC(C)C4)cc3)cc2)n1 (configuration not stated)	0.11	0.26
CCSC1=N/C(=C\c2ccc(C(=O)O)cc2)C(=O)S1	1.27	-0.71
OC(CN1C2=NCCN2c2ccccc21)c1ccc2c(c1)OCO2 (configuration not stated)	0.08	-0.53
CN(C(=O)Nc1ccccc1)C1CCCCC1	0.2	0.15
CN(C)S(=O)(=O)c1ccc(S(=O)(=O)N2CCCC(C(=O)NC3CCCC3)C2)cc1 (configuration not stated)	0.07	2.03
O=C(O)c1ccc(Cl)c(S(=O)(=O)Nc2ccc3cn[nH]c3c2)c1	1.16	0.87
CC1=C(C(=O)OCC2CCCO2)C(c2ccsc2)C2=C(CCCC2=O)N1 (configuration not stated)	0.03	0.3
Nc1cc(N)nc(SCCOc2ccccc2F)n1	0.54	0.14
C=CCN1C(=O)CSC1=Nc1ccc(NC(C)=O)cc1	2.42	-0.58
O=C(COC(=O)[C@H](Cc1ccccc1)NC(=O)c1cccs1)Nc1ccccc1C(F)(F)F	0.37	0.06
